Screens deposited in PubChem by Southern Research Institute.
CFTR F508del: total CFTR protein upregulators, primary screen, cell-based, HeLa F508del-CFTR, immunofluorescence, viability (AID 1224863); Cystic fibrosis transmembrane conductance regulator (Homo sapiens); HeLa F508del-CFTR, immunofluorescence total CFTR, 24 h; by the record results were divided by relative cell number; some inactives read as strong as hits; calls, or highest fold increase where a dose series was run; hit rate 0.1% among 10,000; in the data nearly all actives have a first-pass fold increase above 1.5; a few of its hits are not listed in these tables;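 further: total CFTR protein by anti-CFTR immunofluorescence in fixed cells; first pass at 25 µM or 10 µg/mL by library and series up to twice that; 1 = untreated cells; first-pass hits also needed half or more of the cells alive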
CFTR F508del fold 25 µM: also measured in CFTR F508del; calls as there; fold increase; measured here: primary screen single dose 25 uM; library dosed in µM
CFTR F508del fold 10 ug/mL: also measured in CFTR F508del; calls as there; fold increase; measured here: primary screen 10 ug/mL
CFTR F508del viability 25 µM: recorded beside CFTR F508del, whose call it bears; viability, %; measured here: primary viability 25 uM; library dosed in µM;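 0% = killed and 100% = untreated cells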
CFTR F508del viability 10 ug/mL: second read-out of CFTR F508del, no call of its own (marks repeat the call); viability, %; measured here: primary viability 10 ug/mL;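 0% = killed and 100% = untreated cells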
Numbers without * were called inactive; i = inactive; · = no result given; & = joins results of further samples. The list is partial, so the mix of outcomes need not match the whole.

SMILES	CFTR F508del	CFTR F508del fold 10 ug/mL	CFTR F508del viability 10 ug/mL	others
c1ccc(CN=C2NN=C(c3ccc4c(c3)OCO4)CS2)cc1	i	0.7	78
CC1Cc2cc([N+](=O)[O-])ccc2N1Cn1ncn(C(C)C)c1=S (stereo not drawn)	i	0.91	92
O=C(OCc1cc(-c2cccs2)on1)C1(S(=O)(=O)c2ccc(Cl)cc2)CC1	i	0.97	95
Cc1nccn1CC1CCc2c(c3ccccc3n2C)C1=O (stereo not drawn)	i	·	·	CFTR F508del fold 25 µM=1;CFTR F508del viability 25 µM=102
CC(C)N=c1cc2n(-c3ccc(Cl)cc3)c3ccccc3nc-2cc1Nc1ccc(Cl)cc1	i	·	·	CFTR F508del fold 25 µM=0.88;CFTR F508del viability 25 µM=71
CONC(=O)c1ccc(Cl)o1	i	0.94	96
CCCS(=O)(=O)N1CCCC(C(=O)NC23CC4CC(CC(C4)C2)C3)C1 (stereo not drawn)	i	1.1	92
COc1cc(CNCCc2nnc3ccccn23)cc(Cl)c1OC(F)F	i	1.1	87
NS(=O)(=O)c1cc2c(cc1Cl)NC=NS2(=O)=O	i	·	·	CFTR F508del fold 25 µM=1.1&1.1;CFTR F508del viability 25 µM=117&93
CC1Cc2cc([N+](=O)[O-])ccc2N1Cn1nc(-c2cccnc2)n(C)c1=S (stereo not drawn)	i	0.83	86
CCCN(CC1CC1)C(=O)CSc1nc(C)nc2sc3c(c12)CCCC3	i	0.94	81
Cc1noc(C)c1S(=O)(=O)N1CCN(c2ccc(C(F)(F)F)cn2)CC1	i	0.94	102
Clc1ccccc1-c1nnc(SCc2nnc(-c3ccccc3)o2)n1C1CCCC1	i	1.1	91
Cc1sc2ncnc(N3CCN(C)CC3)c2c1-c1ccccc1	i	0.94	91
O=S(=O)(C/C=C/c1ccccc1)Cc1cccc(Cl)c1	i	0.92	77
Cc1cc(NC(=O)COC(=O)c2ncc(Cl)c(Cl)c2Cl)no1	i	0.98	100
S=c1n(CN2CCN(Cc3ccsc3)CC2)nc2n1CCCCC2	i	1	97
Cc1c(C(=O)OCc2nc3ccccc3s2)oc2ccc(Br)cc12	i	1.1	113
Cc1cc(C)n2nc(SCC(=O)c3ccc(Br)cc3)nc2n1	i	0.93	76
CCC1(c2ccc(OC)cc2)NC(=O)N(CN2CCN(C(=O)OC(C)(C)C)CC2)C1=O (stereo not drawn)	i	1.1	95
CN(C)CCCC(=O)O	i	0.94	93
Cc1cnc2c(S(=O)(=O)N3CCN(c4ccc5nnnn5n4)CC3)cccc2c1	i	0.95	104
CN(Cc1ccccc1Br)Cn1ncc2ccccc2c1=O	i	1.1	90
CC1CCC(NC(=O)/C=C/c2cn(C)c(=O)n(C)c2=O)CC1 (stereo not drawn)	i	1	93
CCOC(=O)c1sc2nc(CN(C)Cc3sccc3C)[nH]c(=O)c2c1C	i	1.1	89
(cont.)
SMILES	CFTR F508del	CFTR F508del fold 10 ug/mL	CFTR F508del viability 10 ug/mL	others
O=C(c1ccc2c(c1)OCCO2)C1CCN(C(=O)C23CC4CC(CC(C4)C2)C3)CC1	i	0.93	82
COc1cc(CSc2nnc(-c3c[nH]c4ccccc34)n2C2CC2)c(OC)cc1Br	i	0.97	89
CN(Cc1nc2ccccc2n1C(F)F)C(=O)C12CC3CC(CC(C3)C1)C2	i	0.91	93
CCOC(=O)c1c(NC(=O)C(C)NC(C)C23CC4CC(CC(C4)C2)C3)sc2c1CCC(C)C2 (stereo not drawn)	i	1	101
COc1ccc(OC)c2c(=O)c(C(=O)O)c[nH]c12	i	1	86
COc1ccc(OCC(O)CNCC2(N3CCCCC3)CCCCC2)c(C(C)(C)C)c1 (stereo not drawn)	i	1	115
COc1ccc(/C=C2\C(=O)c3c(O)ccc(F)c3C2C)cc1O (stereo not drawn)	i	0.83	83
N[C@@H]1[C@@H](O)[C@H](O)[C@@H](CO)O[C@H]1O	i	·	·	CFTR F508del fold 25 µM=0.99;CFTR F508del viability 25 µM=105
CCN1CCCCC1C(=O)O (stereo not drawn)	i	0.97	90
CCC(=O)O[C@]1(C(=O)CCl)[C@@H](C)C[C@H]2[C@@H]3CCC4=CC(=O)C=C[C@]4(C)[C@@]3(F)[C@@H](O)C[C@@]21C	i	·	·	CFTR F508del fold 25 µM=1;CFTR F508del viability 25 µM=86
CC1=C(C(=O)OC(C)C)C(c2ccc(F)cc2)NC(=O)N1c1ccc2c(c1)OCO2 (stereo not drawn)	i	0.89	81
CC(C)(C#N)C(=O)N1CCN(Cc2ccc(C(F)(F)F)cc2)CC1	i	0.88	80
CCCn1nnnc1CSc1nc2ccc(OC)cc2[nH]1	i	0.92	82
O=C1c2ccccc2C(O)(c2ccc(Br)cc2)N1Cc1cn2ccccc2n1 (stereo not drawn)	i	1	100
CC(=O)Oc1ccc(C(c2ccc(OC(C)=O)cc2)c2ccccn2)cc1	i	·	·	CFTR F508del fold 25 µM=0.99&0.91;CFTR F508del viability 25 µM=95&99
CCn1cc(C(=O)O)c(=O)c2ccc(C)nc21	i	·	·	CFTR F508del fold 25 µM=1.1;CFTR F508del viability 25 µM=92
c1ccc(CNc2nc(Nc3cccc4ccccc34)nc3ccccc23)cc1	i	0.61	11
CC(C)C[C@H](NC(=O)[C@@H](COC(C)(C)C)NC(=O)[C@H](Cc1ccc(O)cc1)NC(=O)[C@H](CO)NC(=O)[C@H](Cc1c[nH]c2ccccc12)NC(=O)[C@H](Cc1cnc[nH]1)NC(=O)[C@@H]1CCC(=O)N1)C(=O)N[C@@H](CCCN=C(N)N)C(=O)N1CCC[C@H]1C(=O)NNC(N)=O	i	·	·	CFTR F508del fold 25 µM=1.1;CFTR F508del viability 25 µM=86
Cc1noc2nc(-c3ccco3)cc(C(=O)OCc3cc(=O)n4cc(Cl)ccc4n3)c12	i	1.1	101
COc1cc(Cn2c(=O)oc3cc(Cl)ccc32)c(OC)cc1Br	i	0.86	78
CC(Sc1nnc(C(F)(F)F)n1C)C(=O)NC(N)=O (stereo not drawn)	i	0.97	100
FC(F)(F)COCC(F)(F)F	i	·	·	CFTR F508del fold 25 µM=1.1;CFTR F508del viability 25 µM=103
COc1ccc(Cl)cc1CSC1=NC2CCCCC2N1 (stereo not drawn)	i	1	93
O=S(=O)(NCCc1ccc2c(c1)OCCO2)c1ccc(Br)cc1	i	0.87	79
CC(=O)O[C@H]1C[C@@]2(C)[C@@H](C[C@@H](O)C3[C@]2(C)CC[C@H]2[C@H](C)[C@H](O)CC[C@]32C)/C1=C(/CCC=C(C)C)C(=O)O (stereo partly drawn)	i	·	·	CFTR F508del fold 25 µM=1;CFTR F508del viability 25 µM=94
(cont.)
SMILES	CFTR F508del	CFTR F508del fold 10 ug/mL	CFTR F508del viability 10 ug/mL	others
Nc1nc(CSc2ccc(S(=O)(=O)N3CCCC3)cn2)nc(Nc2ccccc2)n1	i	1	99
CCCc1nc(SC(C)C(=O)NC2(C#N)CCCCC2)n[nH]1 (stereo not drawn)	i	0.97	97
Cc1cc(NC(=O)NC(C2CC2)C2CC2)no1	i	0.93	95
CCN(CC)S(=O)(=O)c1ccc(N2CCN(S(=O)(=O)c3ccc4c(c3)OCCO4)CC2)nc1	i	1.1	90
Cc1ccccc1CSCn1nnc2ccccc2c1=O	i	0.85	78
CC1=CC(=O)C(C(=O)/C=C/c2sc3ccccc3c2Cl)C(=O)O1 (stereo not drawn)	i	0.95	115
CC1CCN(S(=O)(=O)c2ccc(NCCCN3CCCC3)c([N+](=O)[O-])c2)CC1	i	1	93
O=C1/C(=C/c2cnn(Cc3ccccc3)c2)Cc2ccccc21	i	1	92
CC1CCN(S(=O)(=O)N2CCNCC2)CC1	i	1.1	95
O=[N+]([O-])c1ncccc1Oc1ncc(C(F)(F)F)cc1Cl	i	0.87	80
CC(O)(CC(=O)O)CC(=O)O	i	·	·	CFTR F508del fold 25 µM=1.1;CFTR F508del viability 25 µM=91
O=C1C(=O)N(Cc2ccc3c(c2)OCO3)C(=O)N1Cc1ccccc1	i	1.1	94
O=C(/C=C/c1cc([N+](=O)[O-])cc2c1OCOC2)c1cccc(O)c1	i	0.62	58
O=[N+]([O-])c1ccc(N2CCC(NS(=O)(=O)c3cccs3)CC2)nc1	i	0.94	79
O=C(OC1CCCCC1)c1ccc2c(=O)n3c(nc2c1)CCCCCC3	i	1	96
N#CCCC(C#N)CSc1nc(NC2CC2)c2ccccc2n1 (stereo not drawn)	i	1.1	93
Cc1ccccc1CN1C(=O)C(=O)N(Cc2ccccc2)C1=O	i	1.1	106
CCC1CCCCN1Cc1nc2sc3c(c2c(=O)[nH]1)CCC3 (stereo not drawn)	i	1.1	97
Cc1noc(C2CCN(S(=O)(=O)c3ccc4ccccc4c3)CC2)n1	i	1	94
O=C(NC1=NCCS1)c1csc(Br)c1	i	0.84	91
Clc1ccc(-c2noc(CN3CCN(c4ccc5nnnn5n4)CC3)n2)cc1	i	0.9	80
COc1cc2nc(N3CCN(C(=O)C4CCCO4)CC3)nc(N)c2cc1OC (stereo not drawn)	i	·	·	CFTR F508del fold 25 µM=1.1;CFTR F508del viability 25 µM=87
CC(C)CSCc1nc(-c2ccccc2)no1	i	1	105
NNC(=O)c1ccncc1	i	·	·	CFTR F508del fold 25 µM=1.1&1.2&0.94&0.98;CFTR F508del viability 25 µM=91&108&116&83
CCCC[C@@H](CC)COC(=O)C(C#N)=C(c1ccccc1)c1ccccc1	i	·	·	CFTR F508del fold 25 µM=1.1;CFTR F508del viability 25 µM=87
Later entries:
SMILES	CFTR F508del	CFTR F508del fold 10 ug/mL	CFTR F508del viability 10 ug/mL	others
COCCCN(Cc1nc2cc(OC)c(OC)cc2c(=O)[nH]1)Cc1nc2cc(OC)c(OC)cc2c(=O)[nH]1	i	1	104
COc1cc(Br)c(CN2C(=O)c3ccccc3S2(=O)=O)cc1OC	i	1.2	75
O=C1CCCN1CCCN1C(=O)c2ccccc2C1(O)c1ccc(Br)cc1 (stereo not drawn)	i	1.1	91
CC(=O)Nc1ccc(S(=O)(=O)c2ccc(NC(C)=O)cc2)cc1	i	·	·	CFTR F508del fold 25 µM=1;CFTR F508del viability 25 µM=118
Cc1cc(C2CCCN2S(=O)(=O)c2ccc(Cl)cc2)on1 (stereo not drawn)	i	0.96	83
CC1(CCc2ccccc2)NC(=O)N(CN2CCN(Cc3ccc4c(c3)OCO4)CC2)C1=O (stereo not drawn)	i	1.2	103
CCCCCCCCCCCCSc1nc2c(c(=O)[nH]c(=O)n2C)n1CCCCCCCCCCCC	i	0.94	105
O=c1[nH]nc(SCc2ccc([N+](=O)[O-])cc2)n1C1CC1	i	1	110
O=c1c2c3c(sc2ncn1CC(O)CN1CCOCC1)CCCC3 (stereo not drawn)	i	1.1	90
O=C1OCCC1Sc1ncc(-c2ccc(F)cc2)o1 (stereo not drawn)	i	1.1	97
NC(=O)N1CCCC(C(=O)NCCC2CCCCC2)C1 (stereo not drawn)	i	1.1	85
O=C(C1CC(=O)N(c2ccccc2)C1)N1CCSCC1 (stereo not drawn)	i	0.99	95
CN(C)S(=O)(=O)N1CCN(C(=O)C2CCN(C(=O)OC(C)(C)C)CC2)CC1	i	0.98	98
CC1CCC2(CC1)NC(=O)N(CN1CCC(C(=O)c3ccc4c(c3)OCCO4)CC1)C2=O (stereo not drawn)	i	1	97
O=C(CSc1nnc(N2CCCCC2)n1C1CC1)c1ccc(Cl)s1	i	1.1	81
CCC(C)NC(=O)Cn1nnn(-c2cccs2)c1=O (stereo not drawn)	i	1	97
CC1=C(C(=O)OCc2ccccc2)C(c2ccccc2C(F)(F)F)NC(=S)N1 (stereo not drawn)	i	0.81	66
COc1ccc2cc([C@H](C)C(=O)O)ccc2c1	i	·	·	CFTR F508del fold 25 µM=1.1&1;CFTR F508del viability 25 µM=104&107
O=C1c2ccccc2C(=O)C1c1ccc(Cl)cc1	i	·	·	CFTR F508del fold 25 µM=1.1;CFTR F508del viability 25 µM=82
O=C(CCNC(=O)c1ccco1)Nc1ncn[nH]1	i	1.1	88
Cn1c(SCC(=O)c2ccc3c(c2)OCCO3)nc2ccsc2c1=O	i	1	89

Gathered by group, those above containing two or more sulfur atoms.
SMILES	CFTR F508del	CFTR F508del fold 10 ug/mL	CFTR F508del viability 10 ug/mL	others
O=C(OCc1cc(-c2cccs2)on1)C1(S(=O)(=O)c2ccc(Cl)cc2)CC1	i	0.97	95
NS(=O)(=O)c1cc2c(cc1Cl)NC=NS2(=O)=O	i	·	·	CFTR F508del fold 25 µM=1.1&1.1;CFTR F508del viability 25 µM=117&93
CCCN(CC1CC1)C(=O)CSc1nc(C)nc2sc3c(c12)CCCC3	i	0.94	81
S=c1n(CN2CCN(Cc3ccsc3)CC2)nc2n1CCCCC2	i	1	97
CCOC(=O)c1sc2nc(CN(C)Cc3sccc3C)[nH]c(=O)c2c1C	i	1.1	89
Nc1nc(CSc2ccc(S(=O)(=O)N3CCCC3)cn2)nc(Nc2ccccc2)n1	i	1	99
CCN(CC)S(=O)(=O)c1ccc(N2CCN(S(=O)(=O)c3ccc4c(c3)OCCO4)CC2)nc1	i	1.1	90
O=[N+]([O-])c1ccc(N2CCC(NS(=O)(=O)c3cccs3)CC2)nc1	i	0.94	79
O=C(NC1=NCCS1)c1csc(Br)c1	i	0.84	91
O=C(CSc1nnc(N2CCCCC2)n1C1CC1)c1ccc(Cl)s1	i	1.1	81
Cn1c(SCC(=O)c2ccc3c(c2)OCCO3)nc2ccsc2c1=O	i	1	89
